KCNQ2 enhance = potentiators of rat KCNQ2 potassium channel; O88943; CHO-K1 KCNQ2, FluxOR thallium flux fluorescence; active compounds read high; B-score at 10 µM; 310,000 tested, 0.54% active;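 active = fluorescence ratio B-score at least 3 SD of library B-scores, with initial fluorescence B-score within 3 SD, cut at about 5.3 in these data; same plate scores as AID 2156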;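 note: B-score of peak minus minimum over baseline fluorescence ratio after K+ and Tl+ stimulus; positive B-score means potentiation of KCNQ2 with more thallium influx and brighter signal; only the inactives scoring about 0 or higher are listed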
Target sequence (O88943 whole entry, looked up): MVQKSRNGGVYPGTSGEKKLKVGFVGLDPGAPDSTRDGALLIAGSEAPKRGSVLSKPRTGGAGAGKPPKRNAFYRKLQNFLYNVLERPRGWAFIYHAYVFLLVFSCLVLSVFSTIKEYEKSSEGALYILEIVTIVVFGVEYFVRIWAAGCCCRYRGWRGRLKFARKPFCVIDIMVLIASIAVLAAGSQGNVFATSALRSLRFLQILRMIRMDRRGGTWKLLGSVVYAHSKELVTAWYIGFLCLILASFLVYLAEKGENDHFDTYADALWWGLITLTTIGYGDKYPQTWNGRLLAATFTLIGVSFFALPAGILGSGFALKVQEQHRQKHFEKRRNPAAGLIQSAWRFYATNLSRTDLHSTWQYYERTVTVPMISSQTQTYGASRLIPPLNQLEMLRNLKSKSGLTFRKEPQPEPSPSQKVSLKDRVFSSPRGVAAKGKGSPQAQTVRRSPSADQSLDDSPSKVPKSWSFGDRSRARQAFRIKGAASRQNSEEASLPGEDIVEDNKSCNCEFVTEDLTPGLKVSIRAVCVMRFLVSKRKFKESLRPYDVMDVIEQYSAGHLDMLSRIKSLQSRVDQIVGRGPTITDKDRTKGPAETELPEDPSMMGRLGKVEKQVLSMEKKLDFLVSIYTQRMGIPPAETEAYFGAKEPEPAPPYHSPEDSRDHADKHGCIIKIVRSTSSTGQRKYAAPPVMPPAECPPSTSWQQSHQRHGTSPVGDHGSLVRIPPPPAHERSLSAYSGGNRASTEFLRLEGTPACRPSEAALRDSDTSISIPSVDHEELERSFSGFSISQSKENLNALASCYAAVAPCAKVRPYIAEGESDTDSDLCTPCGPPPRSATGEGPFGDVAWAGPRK
KCNQ2 enhance baseline = recorded beside KCNQ2 enhance, whose call it bears; B-score; compound at 10 µM; measured here: initial fluorescence intensity artifact check;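 brightness before thallium and not channel activity; 0 = typical well and far values either way flag optical interference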
* hit, by the source's call.

SMILES | KCNQ2 enhance | KCNQ2 enhance baseline
CCS(=O)(=O)N1CCCC(C(=O)NCCc2ccc(C)cc2)C1 (centres undefined) | 0.8 | 1.2
Cc1ccc(CN2CCN(Cc3cn(C(C)C)c4ccccc34)CC2CCO)o1 (centres undefined) | 1.9 | 0.75
Cc1ccc(C(=O)Nc2scc(-c3ccccc3)c2C(=O)O)cc1 | 1.7 | 1.1
CCCc1cc(=O)oc2cc3oc(C)c(C)c3cc12 | 0.01 | -0.74
CC1CCCN(c2ccc(C(=O)Nc3nnc(C4CC4)s3)cc2[N+](=O)[O-])C1 (centres undefined) | 0.04 | -0.7
O=C(O)Cc1sc(Nc2ccccc2)nc1-c1ccc(Cl)cc1 | 1.4 | -2.5
CC(NC(=O)C(C(=O)c1cccc([N+](=O)[O-])c1)n1cc(Cl)ccc1=O)c1ccccc1 (centres undefined) | 0.09 | -0.04
Cc1cc(C)cc(C(=O)/C=C2\NC(=O)CS2)c1 | 2.3 | 0.05
Cc1ccc(N2C(=O)c3ccc(C(=O)O)cc3C2=O)c(C)c1 | 0.6 | 0.13
CCOC(=O)c1c(NC(=O)CSc2n[nH]c(CNc3ccccc3)n2)sc(C)c1C | 0.98 | -0.11
COC(C/C=C/C(=O)COCc1ccccc1)OC | 1.4 | 0.02
COc1ccccc1-n1nnnc1SCC(=O)Nc1ccccn1 | 1.7 | -0.59
COc1ccc(N2CCN(C(=O)Cn3c(=O)[nH]c4ccccc4c3=O)CC2)cc1 | 0.56 | 1.9
COc1cc2c(cc1OC)CN(C(=O)CCCN1C(=O)c3ccccc3C1=O)CC2 | 0.16 | 0.85
O=C(Nc1cccc(-n2cnnn2)c1)c1cccc(Cl)c1 | 1.2 | -1.8
COCCNc1c(-c2ccc(O)cc2)nc2ccc(Cl)cn12 | 0.02 | -1.5
CNc1c(NS(=O)(=O)c2ccc(OC)c(Cl)c2)c(=O)oc2ccccc12 | 0.06 | -1.9
C=CCn1c(=O)c(C(=O)NCCNCC)c(O)c2ccccc21 | 0.39 | -0.48
CCC(C)[C@H](NC(=O)N1CCCC1)C(=O)O (some centres undefined) | 1.2 | -0.09
CC1=C(C(=O)OCc2ccc3c(c2)OCO3)C(c2ccccc2)NC(=O)N1 (centres undefined) | 0.63 | 0.05
Cn1cc([N+](=O)[O-])c(C(=O)N/N=C/c2ccccc2)n1 | 1.9 | -1.1
O=C(CCn1c(=O)c2sccc2n(Cc2cc(=O)n3ccccc3n2)c1=O)NCc1ccco1 | 0.59 | -0.73
O=C(O)c1ccc(OCC(O)Cn2c3ccccc3c3ccccc32)cc1 (centres undefined) | 0.38 | -0.88
C=CCNC(=S)NCC1COc2ccccc2O1 (centres undefined) | 0.72 | -0.96
COC(CNc1ccc([N+](=O)[O-])c(NCC(OC)OC)c1C#N)OC | 0.91 | -1.9
Cc1cc(C)c(C)c(OCCN2CCOCC2)c1 | 0.71 | 0.21
Cn1c(SC/C=C/c2ccccc2)nnc1-c1cnccn1 | 1.9 | -0.11
CCCN1Cc2cccc(C(N)=O)c2C1=O | 0.63 | -0.24
N[C@@H]1CONC1=O | 1.2 | -0.93
S=c1[nH]nc(-c2ccco2)n1/N=C/c1ccc(Cl)cc1Cl | 0.32 | 5.9
CCCC(=O)C1=C(O)C(C(=O)OC)C(C)(C)CC1=Nc1ccncc1 (centres undefined) | 0.15 | 1.9
CC1CN(C(=O)c2cc3cc(F)ccc3[nH]2)CC(C)O1 (centres undefined) | 0.24 | 1.5
O=C(NCc1ccc(C(F)(F)F)cc1)C1CC(c2c(Cl)cccc2Cl)=NO1 (centres undefined) | 1.4 | 0.01
CC(C(=O)Nc1ccccc1C(=O)N1CCOCC1)N(c1ccccc1)S(C)(=O)=O (centres undefined) | 0.38 | 0.57
Cc1nc2ccc(NC(=O)c3ccc(Cl)c([N+](=O)[O-])c3)cc2s1 | 0.83 | 0.91
Cc1cccc(N2CCN(C(=O)N3CCOCC3)CC2)c1C | 0.44 | -2.5
Cc1nc(N)[nH]c(=O)c1CCC(=O)OCC(C)C | 0.46 | -0.39
COc1cc(NC(=O)c2ccc(OC)c([N+](=O)[O-])c2)ccc1NC(=O)c1ccco1 | 0.3 | 0.71
Nn1c(-c2ccc(O)cc2)nnc1-c1ccc(O)cc1 | 0.04 | -0.52
CC(=O)c1cccc(NC(=O)c2cc3ccccn3n2)c1 | 1.5 | -0.22
O=C(CN1CCNC(=O)C1)NCCc1ccc(Cl)cc1Cl | 0.26 | 1.7
O=c1[nH]cc(S(=O)(=O)c2ccccc2)[nH]1 | 0.77 | 0.6
CCCC(=O)C1=C(N2CCCCC2)CC(C)(C)C(C(=O)OC)C1=O (centres undefined) | 0.08 | 1.4
O=C(CNC(=O)c1cccc(OC(F)F)c1)OCc1cc(=O)n2cc(Br)ccc2n1 | 0.56 | -0.01
Cc1ccc2nc(SCC(=O)N3CCC(C)CC3)nc(=O)n2c1 | 0.79 | 0.89
O=C(COC(=O)C1(c2ccc(F)cc2)CCCC1)N1CCOCC1 | 0.31 | 2.4
Nc1ccc[n+](Cc2ccccn2)c1 | 0.05 | 0.01
Cc1ccc(CN2CCN(CC(=O)N=Nc3c(O)[nH]c4ccccc34)CC2)cc1 | 0.23 | -1.9
CCCCCn1c(CN2CCN(C(=O)OCC)CC2)nc2c1c(=O)n(C)c(=O)n2C | 0.61 | 0.54
COC(=O)c1cc2ccsc2n1CC(=O)NCC1CCCO1 (centres undefined) | 0.34 | 1.6
Later entries:
SMILES | KCNQ2 enhance | KCNQ2 enhance baseline
Cn1nc(C(=O)OCCN2C(=O)c3ccccc3C2=O)c2ccccc2c1=O | 1.2 | 0.16
CSc1ccc(/C=N/NC(=O)c2ccccc2Cl)cc1 | 1.5 | 0.17
Cc1nc(-c2cccc(-c3noc(C)n3)c2)no1 | 0.86 | 0.05
CC(=O)NN1C(=O)/C(=C\c2ccc(Br)o2)SC1=S | 0.51 | 0.15
O=C(Nc1c(C(=O)N2CCOCC2)cnn1-c1ccccc1)c1ccccc1 | 0.14 | 0.45
O=C(CCN1C(=O)[C@@H]2Cc3ccccc3CN2C1=O)N[C@@H](Cc1ccccc1)C(=O)O | 0.1 | 0.09
COCCN(C(=O)Nc1ccc(OC)cc1OC)C1CCN(C(C)C)CC1 | 0.61 | 0.67
CC(C)C(=O)NC(c1cccc([N+](=O)[O-])c1)c1c(O)ccc2ccccc12 (centres undefined) | 0.75 | 2.6
Cc1cc(C)c2c(N)c(C(=O)Nc3nccs3)sc2n1 | 0.32 | 1.2
COc1ccc(S(=O)(=O)N2CCC(C(=O)NCCC(=O)Nc3cccc(Cl)c3)CC2)cc1 | 1.1 | -2.7
CC(C)c1nc(C#N)c(N2CCOCC2)o1 | 0.67 | 1.3
O=C(NCC1CCS(=O)(=O)C1)NCC1CCS(=O)(=O)C1 (centres undefined) | 0.74 | 0.05
O=C(Cn1ccc([N+](=O)[O-])n1)N1CCc2ccccc21 | 0.05 | 2.4
CC1(C)CC(=O)C2=C(C1)Nc1ncnn1C2c1ccccn1 (centres undefined) | 0.02 | -0.85
COc1cccc(-c2nnc(Nc3nc4c(F)cccc4s3)o2)c1 | 9.7* | -0.21*
COC(=O)c1sc(S(=O)(=O)N2CCN(c3ccc(OC)cc3)CC2)c(C(=O)OC)c1C | 0.73 | -0.71
CCS(=O)(=O)c1nc(S(=O)(=O)c2ccc(Cl)cc2)c(NCc2ccco2)s1 | 0.09 | -0.06
COc1ccc(CNC(=O)C(c2ccco2)N(C(=O)Cc2cccs2)c2cccnc2)cc1 (centres undefined) | 0.07 | -0.01
Cc1csc(NC(=O)c2ccc(S(=O)(=O)N3CCCC3)cc2)n1 | 0.01 | 2.1
Cc1cccc2nc3ccccc3cc12 | 0.05 | 0.58
C#CCCOC(=O)N1C2=NC(C(=O)OC)=C(C(=O)OC)[C@@H]3Nc4ccccc4[C@]23C[C@H]1C(=O)OC | 0.13 | -0.03
Cc1noc(C)c1-c1ccc2nc[nH]c(=O)c2c1 | 1.1 | 1.6
COc1cc(NC(C)=O)c2ncccc2c1NC(C)=O | 1 | 1.5
O=C(Nc1cccnc1)c1ccc(COc2ccccc2Br)cc1 | 1 | 1.5
O=C(Nc1ccc(Oc2ccccc2)cc1)C1CCN(c2c3c(nc4ncnn24)CCC3)CC1 | 0.05 | -0.31
Cc1ccc2cc(C=O)c(N(C)C)nc2c1 | 0.55 | 1.4
NS(=O)(=O)c1ccc(NC(=O)CN2CCCC2)cc1 | 1.7 | -1.1
COc1ccc(C(=O)N/N=C/C(=O)c2ccccc2)cc1 | 0.7 | 0.04
Cn1nnc(NC(=O)c2ccc(C(C)(C)C)cc2)n1 | 0.41 | 0.93
CC(C)C(=O)OCc1cn(-c2ccc(Cl)c(Cl)c2)nn1 | 0.54 | 2.1
CC(C)(C)NC(=O)C1Cc2ccccc2CN1C(=O)Nc1ccccc1Cl (centres undefined) | 1.2 | -1.3
O=C(Nc1nnc(S(=O)(=O)N2CCCCC2)s1)c1ccc(Cl)cc1 | 0.06 | 2.6
Cc1nn(-c2ccccc2)c(C)c1/C=N/NC(=O)CSc1nnc(-c2ccccc2)n1-c1ccc(Cl)cc1 | 0.48 | -0.36
O=C(c1ccc(Br)cc1)N(C1=NCCCCS1)c1ccccc1 | 1.2 | 2
COc1ccc(C2C(C(=O)N3CCN(c4ccccn4)CC3)CCC(=O)N2c2ccc(OC)cc2)cc1 (centres undefined) | 0.29 | -0.01
CCCCNC(=O)c1ccccc1NC(=O)c1ccccc1N(C)S(C)(=O)=O | 0.24 | -0.38
Nc1nonc1-n1nnc(C(=O)N/N=C/c2ccco2)c1CSc1ccccc1 | 0.55 | -0.79
O=C(NCc1ccc2c(c1)OCO2)c1ccc(Br)s1 | 2.8 | -0.01
COc1ccc(-c2cc(C(=O)NCc3cccnc3)no2)cc1OC | 2.3 | 1.1
Cc1cccc(C(=O)N2CCN(S(=O)(=O)N3CCCCC3)CC2)c1 | 0.69 | -2.3
CC(C)C(=O)Nc1ccc([N+](=O)[O-])c(C(F)(F)F)c1 | 2 | -0.01
CCC1CCC(C(=O)NC(C(=O)NCCCN2CCCCC2C)C(C)C)CC1 (centres undefined) | 2.3 | -0.74
CC(=O)Nc1ccc(Cc2nc3c([nH]2)c(=O)n(C)c(=O)n3C)cc1 | 0.95 | -0.47
COc1ccc(C2c3ccc(O)cc3Oc3ncn4nc(-c5ccccn5)nc4c32)cc1 (centres undefined) | 0.03 | -1.2
COc1ccc2c(c1)c(=O)oc1c(C)c(OCc3ccc(C(=O)O)cc3)ccc12 | 0.84 | -0.23
O=C(/C=C/c1ccccc1)N/C(=C/c1ccccc1)C(=O)Nc1cccc(C(=O)O)c1 | 0.72 | -1.3
CCC(C)NC(=O)COc1ccc(S(=O)(=O)N2CCOCC2)cc1 (centres undefined) | 0.04 | -1.4
O=C(CCc1ccc(O)cc1)c1c(O)cc(O)cc1O | 0.96 | -1.6
c1ccc(CNc2c3ccccc3nc3ccccc23)cc1 | 1.1 | -0.97
O=C1NCC(COCC2CC=CCC2)O1 (centres undefined) | 1.5 | -1.8
New compounds follow:
SMILES | KCNQ2 enhance | KCNQ2 enhance baseline
CC(C)C[C@H](NC(=O)Nc1ccc(Oc2ccccc2)cc1)C(=O)O | 0.03 | -0.25
CC1Cc2ccccc2N1C(=O)CCS(=O)(=O)c1cccs1 (centres undefined) | 0.27 | 0.25
COc1cc(NC(=S)Nc2ccc(Br)cc2Cl)c(OC)cc1Cl | 0.15 | 0.69
C=CCOc1cccc(C2C(C(=O)c3ccc(C)o3)=C(O)C(=O)N2CCCn2ccnc2)c1 (centres undefined) | 0.22 | 1.5
COc1ccc(OC)c(NC(=O)CSc2nncc3ccccc23)c1 | 1.6 | -0.73
CC(C)(C)NC[C@H](O)COc1nsnc1N1CCOCC1 | 1.1 | 0.43
CCOc1ccc(NS(=O)(=O)c2ccc(NC(=O)[C@@H]3CCCC[C@@H]3C(=O)O)cc2)cc1 | 1.1 | -0.04
O=c1[nH]n(CC2COC3(CCCCC3)O2)c(=O)c2ccccc12 (centres undefined) | 0.24 | -0.97
Cc1ccc2c(CSc3nnnn3C)cc(=O)oc2c1 | 1.3 | -1.6
CCSC1=NC2(CCCCC2)Nc2sc3c(c21)CCCC3 | 0.14 | -0.16
COc1ccc(/C(C)=N/OC/C(O)=C(\C#N)c2nc3ccccc3[nH]2)cc1OC | 0.22 | -0.16

Screening data deposited in PubChem BioAssay by Johns Hopkins Ion Channel Center.

This is a subset, so the mix of outcomes need not match the whole.
